RanGTP-Impb inh: disruptors of Ran-importin-beta complex formation – biochemical, FRET, CFP-Ran, YFP-importin-beta, homogeneous, primary screen; cell-free CFP-Ran/YFP-importin-beta FRET ratio; inhibition, % (no concentration beside the values); hit rate 1.1% among 300,000; AID 2216;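 active = most replicates above 15%; inconclusive = exactly half above 15%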;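 note: 0% = DMSO wells and 100% = Ran loaded with GDP instead of GTP; wells of about 40 µL received 100 nL stock; the first replicate is given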
Ecoli rRNA inh: inhibits bacterial ribosomal RNA function over humanized ribosomes | E. coli WT GFP vs humanized-ribosome RFP mutants, fluorescence, 24 h; hits give low values; DMSO median 0, no signal -100 | GFP signal change (wild-type ribosome), % (no concentration beside the values) | hit rate 1.6% among 350,000 | AID 720706;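 active = significant combined selectivity score with lowered wild-type GFP, culture density cut under 30%, mutant RFP and density less affected; inactive = any of these conditions unmet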; note: one replicate is shown; some compounds called inactive have numbers as strong as hits
MLL AF4-AF9 inh: inhibitors of human MLL-AF4/AF9 interaction; P42568; AlphaScreen, biotin-AF4 peptide binding to FLAG-AF9; inhibition, % at 10 µM; hit rate 0.47% among 350,000; AID 651704;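 active = every replicate reaching a set inhibition limit, whatever the replicate mean, cut at about 25% in these data; inconclusive = mean inhibition reaches that limit but some replicates miss it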;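 note: 0% = plate neutral control median and 100% = total signal loss; the record names both 10 and 1 µM as test concentration; the first replicate is given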
Target sequence (P42568 whole entry, looked up): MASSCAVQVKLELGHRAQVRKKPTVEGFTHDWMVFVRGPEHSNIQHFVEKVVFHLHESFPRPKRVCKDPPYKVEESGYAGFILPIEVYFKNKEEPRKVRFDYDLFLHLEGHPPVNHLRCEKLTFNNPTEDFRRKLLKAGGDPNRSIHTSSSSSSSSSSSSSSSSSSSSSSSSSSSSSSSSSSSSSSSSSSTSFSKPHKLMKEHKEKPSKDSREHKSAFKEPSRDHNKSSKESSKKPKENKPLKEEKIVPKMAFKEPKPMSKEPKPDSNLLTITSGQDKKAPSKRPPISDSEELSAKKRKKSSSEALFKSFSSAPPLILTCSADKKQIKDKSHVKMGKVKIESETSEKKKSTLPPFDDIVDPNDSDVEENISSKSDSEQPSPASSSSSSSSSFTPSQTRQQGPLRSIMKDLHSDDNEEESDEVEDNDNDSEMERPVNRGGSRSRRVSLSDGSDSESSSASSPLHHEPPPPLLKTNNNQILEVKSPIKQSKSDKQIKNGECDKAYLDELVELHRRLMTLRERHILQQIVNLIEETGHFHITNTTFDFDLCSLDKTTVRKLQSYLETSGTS
Bfl-1 A1 inh: inhibitors of the anti-apoptotic protein A1, read as caspase activation. MEF A1-2A-BIM cells, Caspase-Glo 3/7 luminescence, 3 h; percent of clofoctol response, vehicle zero. hit rate 0.066% among 330,000. caspase activation, % (test concentration not listed);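 active = over half of replicate activation scores above 10%, or exactly half above 10 with the replicate mean above 10; inconclusive = replicate mean below 10 yet half the replicates above 10; inactive = over half of replicates below 10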;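 note: wells of about 30 µL received 50 nL stock; many hits fall short of the cut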
T cruzi inh: blocks replication of Trypanosoma cruzi; T. cruzi beta-gal in NIH3T3, luminescence, 90 h; inhibition, % (no concentration beside the values); hit rate 1.4% among 300,000;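 active = mean inhibition across valid replicates above about 55%, limit read from the data; inconclusive = mean below that limit but half or more replicates reach it; inactive = mean below it, under half of replicates reach it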;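 note: signal also drops with host cell toxicity which is not excluded here; 0% = plate median of DMSO wells and 100% = zero luminescence signal; higher percent means less beta-gal luminescence so fewer parasites; stock transfer was 50 nL into about 50 µL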
Vif A3G: inhibitors of Vif binding to APOBEC3G peptide, primary screen, biochemical, TR-FRET, GST-Vif 1-94, biotin-A3G peptide, dose response retest (AID 1117319) | TR-FRET GST-Vif / biotin-A3G peptide binding; higher % means a stronger effect; test concentration not given here; strong numbers were not always called active | inhibition, %; hits with a dose series show IC50 in µM | hit rate 0.57% among 260,000;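 active = above the screen mean plus three standard deviations and confirmed in dose response; inconclusive = results disagree or hit not tested in dose response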;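 note: Vif residues 1-94 fused to GST binding biotinylated APOBEC3G peptide 110-148; 0% = full assay without inhibitor and 100% = GST in place of GST-Vif; retest series ran down from 100 µM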
Calb FLC: C. albicans growth modulation with fluconazole | AID 1979 | hit rate 0.57% among 300,000 | C. albicans CaCi-2 (fluconazole-resistant clinical isolate) + fluconazole, Alamar Blue growth, 48 h | growth inhibition, % (no concentration beside the values);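 active = most replicates above 75%; inconclusive = exactly half above 75%; inactive = most below 75%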;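 note: all wells also contain fluconazole at 8 µg/ml as a sub-toxic cotreatment; 0% = median of DMSO wells and 100% = median of geldanamycin control wells; wells of about 8 µL received 7.5 nL stock; the first replicate is given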
Beta cell apopt: beta cell apoptosis inhibition; INS-1E cytokine-induced death, ATP luminescence, 48 h; percent of positive-control rescue, neutral wells zero; protection from apoptosis, % (test concentration not listed); hit rate 0.8% among 300,000;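 active = all replicates at 75% or more, or half of them and the mean; inconclusive = half reach 75% but not the mean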;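 note: 0% = cytokine-treated negative control wells and 100% = positive control rescue; higher means more ATP so stronger rescue from cytokine killing; wells of about 40 µL received 100 nL stock; the first replicate is given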
Ecoli rRNA inh OD600: further read-out of Ecoli rRNA inh, marked with its call; OD600 change, %; measured here: OD600 growth;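 optical density of the mix in the first replicate; 0 = DMSO median and -100 = no signal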
Ecoli rRNA inh RFP: further read-out of Ecoli rRNA inh, marked with its call; RFP signal change, %; measured here: RFP humanized mutant strains;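 first replicate; 0 = DMSO median and -100 = no signal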
* = called active by the depositor; ? = inconclusive; . = no result given; & = joins results of further samples. Some of the compounds tested; count on the stated rates, not on these rows.

SMILES	RanGTP-Impb inh	Ecoli rRNA inh	Ecoli rRNA inh OD600	Ecoli rRNA inh RFP	MLL AF4-AF9 inh	Bfl-1 A1 inh	T cruzi inh	Vif A3G	Calb FLC	Beta cell apopt
COc1ccc(/C=C2\C(=O)c3ccccc3OC2c2ccccc2)cc1 (centres undefined)	6.9	16	-1	2.5	9.1	0.3	-9	-4%	-15	25
COc1ccc(S(=O)(=O)N2CCC(C(=O)N3CCCC3)CC2)cc1	7.8	.	.	.	.	0.5	-34	-3%	-4	3
COc1ccc(NC(=O)/C(Cl)=C(/Cl)S(=O)(=O)Cc2ccccc2)cn1	0.8	.	.	.	.	.	37	3%	35	.
Cc1ccnc2nc(C(=O)Nc3nnc(CC(C)C)s3)nn12	2.8	.	.	.	.	-0.2	2	6%	-1	5
COC(=O)[C@@H]1C[C@]2(Br)c3ccccc3N(S(=O)(=O)c3ccccc3)[C@@H]2N1C(=O)OC	-5.0	-3	-10	2.2	-18	-0.1	-3	.	0	-2
CCc1cc(C(=O)N2CCCc3ccccc32)sc1C	?	-44	-65	-5.7	-13	0.6	4	-1%	-23	-12
O=C(CCNC(=O)c1ccc(Cl)cc1)Nc1ccc(S(=O)(=O)N2CCCCC2)cc1	4.5	-4	-4	-0.1	5.5	-0.2	10	2%	9	-2
Cc1cccc(C(=O)N/C(=C\c2ccc(C)o2)C(=O)O)c1	-3.7	17	7	-0.6	-19	0.5	-13	4%	2	1
COC(=O)C(=Cc1ccc(-c2ccsc2C(=O)OC)o1)C(=O)OC	1.1	.	.	.	2.7	0.6	15	2%	0	8
CC(C)(C)C(=O)Nc1ccc(Cc2ccncc2)cc1	0.6	5	9	-0.9	-1.9	1.5	-1	.	-5	-2
O=C(Nc1cccc(C(=O)N2CCN(Cc3ccccc3)CC2)c1)c1ccccc1	-1.3	.	.	.	.	-1.7	-15	0%	-13	5
CCCCCCCC1CC(/C(C)=N/NC(N)=O)OC1=O (centres undefined)	5.2	2	15	-1.9	2.1	0.0	-3	-5%	-5	4
Cc1nn2c(NCc3cccnc3)c3c(nc2c1-c1ccccc1)CCC3	11	.	.	.	-2.6	-0.3	.	?	14	3
CCN(Cc1ccccc1)C(=O)c1oc2ccc(S(=O)(=O)N3CCOCC3)cc2c1C	4.1	1	-24	11	2.4	0.0	-7	.	23	0
O=C1CN(C(=O)c2ccccc2Br)C(c2ccc(F)cc2)c2cc(F)ccc2N1 (centres undefined)	3.9	8	8	1.4	3.7	-0.2	-2	0%	3	3
Cc1ccccc1OCCC(=O)OCC(=O)Nc1ccc(N2CCOCC2)cc1	0.2	-12	-4	-2.9	2.2	0.6	-11	.	-2	-19
Cc1cccc(N(CC(=O)N/N=C/c2ccc(C(=O)O)cc2)S(=O)(=O)c2ccccc2)c1C	-5.4	18	3	-2.5	1.3	1.2	-9	.	29	-9
c1ccc(CCc2ccccc2-c2nc(-c3ccccn3)no2)cc1	2.2	.	.	.	.	-0.4	4	0%	0	-2
O=C(COC(=O)c1ccc(Cl)nc1)Nc1ncc(Cl)cc1Cl	4.0	15	11	-1.5	-0.6	0.2	-19	-5%	-1	-3
CCC(C)(C)NC(=O)C(c1cccnc1)N(C(=O)c1csnn1)c1ccc(C)cc1 (centres undefined)	?	2	12	0.1	-1.3	0.1	-5	-9%	-5	-4
COc1ccc(NCCC(O)c2ccc(Cl)cc2)cc1 (centres undefined)	3.6	-2	1	0.0	8.1	0.8	49	2%	5	-2
CCCCCOc1ccc(CN2CCOCC2)cc1Cl	1.2	.	.	.	.	-2.1	36	1%	-37	3
CC(C(=O)c1ccccc1)[n+]1cccc(Br)c1 (centres undefined)	-2.8	7	14	0.9	-8.7	0.2	-3	3%	75*	-6
CSc1ncccc1C(=O)N1CCCC(CCC(=O)NCc2ccccc2F)C1 (centres undefined)	-1.3	-2	-2	-5.1	0.1	-0.9	2	-10%	5	0
CC1CCN(C(=O)COC(=O)c2ccc3c(c2)OCO3)CC1	-0.1	16	16	3.5	-5.0	-3.0	-5	-6%	-1	-5

Additional structures:
SMILES	RanGTP-Impb inh	Ecoli rRNA inh	Ecoli rRNA inh OD600	Ecoli rRNA inh RFP	MLL AF4-AF9 inh	Bfl-1 A1 inh	T cruzi inh	Vif A3G	Calb FLC	Beta cell apopt
O=C(CN(Cc1ccc2c(c1)OCO2)C(=O)CNS(=O)(=O)c1ccccc1)NCc1ccco1	0.7	.	.	.	.	-0.3	5	-2%&-5%	0	-2
CC(=O)Nc1ccc(N=Cc2ccc(OCc3ccccc3)cc2)cc1	7.6	.	.	.	.	-8.0	-20	21%	19	-2
COc1cccc(/C=N/NC(=O)CNC(=O)/C=C\c2ccccc2)c1O	-1.1	-9	-1	-0.6	-2.0	-0.4	6	.	-4	10
CCCOc1ccc(C(=O)NCCCn2ccnc2)cc1	-3.0	.	.	.	.	0.6	2	5%	16	4
CC(c1ccco1)N(C(=O)c1ccc(Cl)c([N+](=O)[O-])c1)c1ccccn1 (centres undefined)	3.8	6	5	0.6	6.7	0.4	.	.	2	-5
CCOc1ccccc1N(C)S(=O)(=O)c1ccc2c(c1)CCN2C(=O)CCC(=O)O	2.6	-8	-6	0.5	-13	0.2	-6	-1%	-6	-2
COC(=O)c1[nH]c2cccc(OC)c2c1NC(=O)CN1CCOCC1	6.2	.	.	.	.	0.2	-12	-7%	1	.
CN(c1ccccc1)c1ccc(/C=N/N2CCOCC2)cc1	-2.1	.	.	.	.	-3.0	-8	6%	0	-3
COc1cc(/C=N/NC(=O)C(=O)NCC2CCCO2)ccc1O (centres undefined)	6.2	.	.	.	.	-0.4	-4	-5%	-3	-2
O=c1c(-c2ccc(O)cc2)coc2c([C@@H]3O[C@H](CO)[C@@H](O)[C@H](O)[C@H]3O)c(O)ccc12	.	3	4	-6.7	-2.7	-0.2	.	.	.	-22
O=C(N/N=C/c1coc2ccc(Cl)cc2c1=O)c1ccncc1	-0.3	0	-5	-0.6	0.2	0.6	-1	1%	8	-12
CCOc1ccc(OCCN2C(=O)c3ccccc3C2=O)cc1	1.8	1	-3	-3.1	-0.5	-3.3	4	.	-14	-9
CCOc1ccccc1CN1CCCC(CNC(=O)Cc2ccc(OC)cc2)C1 (centres undefined)	?	20	19	2.0	-6.6	-0.5	59*	.	-19	-4
CCOc1ccc(CN(CC)C(=O)Cc2c[nH]c3ccccc23)cc1OC	0.8	-6	-18	5.1	2.6	0.2	6	.	17	-2
COC(=O)[C@]1(CC(C)C)N[C@H](c2ccc(-c3ccc(OC)cc3)cc2)[C@@H]2C(=O)N(C)C(=O)[C@@H]21	-6.3	4	-5	7.9	1.1	0.0	-12	.	-1	1
CCCCCCSc1cc(-c2nc3ccc(C)cn3c2NCCCC)ccc1OC	.	0	-8	-6.6	16	-1.1	.	.	.	84*
O=c1c2c([nH]n1-c1ccccc1)CCCC2	0.3	21	17	4.1	1.0	-0.1	18	9%	?	-6
CCOCCCNC(=O)c1cc2c(=O)n3cccc(C)c3nc2s1	-0.9	11	10	-1.9	-1.5	-3.2	-11	-16%	12	1
c1csc(C2=NNC(=NC3CCCCC3)SC2)c1	3.1	-6	-12	-0.3	0.5	-1.7	-3	.	13	4
CN(C)S(=O)(=O)c1ccc(NC(=O)Cn2c(-c3ccccc3)noc2=O)cc1	-0.8	7	-1	-0.4	-41	0.0	-6	0%	-11	3
Cc1onc(-c2c(F)cccc2Cl)c1C(=O)Nc1cccc2nsnc12	1.9	.	.	.	.	0.5	8	?	8	-1
Cc1ccccc1-c1nc(C#N)c(N2CCC(C)CC2)o1	-0.3	-27	-29	-7.6	?	-0.2	8	-12%	0	0
Cn1c(=O)c(C(=O)Nc2ccccn2)c(O)c2ccccc21	-3.1	.	.	.	.	-6.5	-13	-12%	-2	22
CC(=O)C(C)n1c(CN(C)Cc2ccccc2)nc2c1c(=O)n(C)c(=O)n2C (centres undefined)	0.4	3	3	-3.8	3.5	-0.4	29	?	-8	3
Cc1ccc(C)c(N=Cc2ccc(-c3ccc([N+](=O)[O-])cc3)o2)c1	-2.1	6	5	3.1	3.4	0.3	3	-10%	-4	-6

Later entries:
SMILES	RanGTP-Impb inh	Ecoli rRNA inh	Ecoli rRNA inh OD600	Ecoli rRNA inh RFP	MLL AF4-AF9 inh	Bfl-1 A1 inh	T cruzi inh	Vif A3G	Calb FLC	Beta cell apopt
CN(Cc1ccccc1)C(=O)c1ccc(NC(=O)C2CCCN(C(=O)OC(C)(C)C)C2)cc1 (centres undefined)	.	-16	-21	-1.5	3.6	-0.2	.	.	.	-2
Cc1ccccc1NC(=O)Cc1nc(COC(=O)C(C)C)cs1	4.2	8	-7	1.6	-0.1	-0.7	4	.	-3	-9
COCCNS(=O)(=O)c1ccc(-c2ccc(Cl)cc2)cc1	-0.4	-9	-8	-16	-0.9	-0.7	11	-3%	-36	2
Cc1ccc(CN(C(=O)c2ccccc2C)C2CCS(=O)(=O)C2)o1 (centres undefined)	-0.2	11	5	1.4	-7.0	1.2	-5	.	0	2
CC(C)(C)c1ccc(S(=O)(=O)N2CCCC2C(=O)N2CCOCC2)cc1 (centres undefined)	-1.1	4	-1	1.9	-2.4	-0.3	-4	0%	-5	0
CCc1ccc2c(CN3CCC(C(=O)OC)CC3)cc(=O)oc2c1	-1.0	-22*	-14*	2.9*	-4.9	0.3	-2	41%	9	4
CN1C(=O)/C(=C/c2ccco2)SC1=Nc1ccc(N2CCOCC2)cc1	0.6	.	.	.	.	0.4	-4	25%	3	1
CC1CCCN(C(=O)CN2CCC(c3nc4ccc(Cl)cc4[nH]3)CC2)C1 (centres undefined)	?	9	1	-7.2	4.0	0.6	13	-3%	1	9
Cc1cccc(-n2ncc3c(NCCCN4CCCC4=O)ncnc32)c1	4.0	.	.	.	.	-0.2	-4	5%	28	.
Cc1nc([N+](=O)[O-])c(Br)n1Cc1ccc(Cl)c(Cl)c1	5.9	-56	-79	-28	2.5	.	44	0%	-5	.
CCOc1ccc(NS(=O)(=O)c2ccc(C(=O)NCC(c3cccs3)N3CCOCC3)cc2)cc1 (centres undefined)	-3.1	-5	-17	3.3	-7.3	-0.2	9	2%	4	2
COc1cc(C(O)P(=O)(OC(C)C)c2ccc(N(C)C)cc2)cc(OC)c1OC (centres undefined)	2.4	.	.	.	.	0.2	4	-1%	28	-3
CCN(CC)S(=O)(=O)c1ccc(C(=O)OCC(=O)NCc2ccco2)cc1	0.2	11	10	2.7	-0.9	-0.8	-8	21%	0	-6
O=c1c2ccccc2nnn1CSc1ccccc1F	2.2	.	.	.	.	-7.3	3	25%	-36	-3
Cc1ccc(CC2(O)CC(C)N(C)CC2C)c(C)c1 (centres undefined)	3.4	.	.	.	.	-0.1	6	-3%	5	-3

Compound activity from PubChem BioAssay.
